# Vaccinia mCherry = qHTS for Stage-Specific Inhibitors of Vaccinia Orthopoxvirus: mCherry Reporter Primary qHTS; Vaccinia virus mCherry reporter infection, fluorescence; about a quarter of the inactives have no number; Potency, µM (series often up to 36.5 µM), for the others: top-dose activity change, negative = inhibition, usual class: inhibitors; actives 0.63% (n = 310,000); AID 720579, 2013; active = well fitted inhibition curve with a large enough effect; inconclusive = small, poorly fitted or top-dose-only effect; inactive = no such curve, though single readings can be large or run the other way; tested in A549 cells; also: nearly all actives have a fitted effect of over 35% in size; inactives centre near -10
# VACV Venus inh = qHTS for Stage-Specific Inhibitors of Vaccinia Orthopoxvirus: Venus Reporter Primary qHTS; Vaccinia virus Venus reporter expression, fluorescence; Potency, µM (highest dose often 36.5 µM), without a hit: top-dose activity change, negative = inhibition, usual class: inhibitors; actives 0.46% (n = 330,000); AID 720580, 2013; active means well fitted inhibition curve with a large enough effect; inconclusive means small, poorly fitted or top-dose-only effect; inactive means no such curve, though single readings can be large or run the other way; tested in A549 cells; also: nearly all actives have a fitted effect of over 30% in size; inactives centre near -10
# An asterisk follows results filed as active; i = inactive; ? = inconclusive; nt = no result given; & = joins results of further samples; [ ] = dose if it differs, or a comment. % is scaled to controls: 0 for no effect and ±100 for the full control effect; potency is read from the fitted curve at half-maximal effect.
SMILES,Vaccinia mCherry,VACV Venus inh
O=C(CCn1c(=O)sc2ccccc21)Nc1nccs1,-18%,-19%
CC(=O)Oc1ccc2c(c1C(C)C)CCC1C(C)(C)CCC[C@@]21C (some centres undefined),i,-13%
COC(=O)CSC1=C(C#N)C(c2ccccc2F)CC(=O)N1 (centres undefined),i,-6%
CC(=O)c1cc2c(cc1NC(=O)CSc1ncccn1)OCO2,-2%,2%
Cc1ccc(N(C(=O)CNC(=O)c2ccco2)C(C(=O)NC2CCCC2)c2cccnc2)c(C)c1 (centres undefined),-1%,0%
CCCCCCNC(=O)O[C@H]1C[C@H](C(=O)OC)[C@H](C(=O)OC)C2CN(S(=O)(=O)c3ccc(C)cc3)C[C@@]21O (some centres undefined),-11%,-23%
COCCn1nnnc1C(CC(C)C)N1CCN(C(=O)c2ccco2)CC1 (centres undefined),-7%,-11%
CC1(C)C2CC=C(/C=N/NC(=S)Nc3cccnc3)C1C2 (centres undefined),i,-10%
CC(C)C[C@@H](CSc1ccc(Br)cc1)N1CCN(C)CCC1=O,i,-12%
CC(Nc1c[nH]c(=O)[nH]c1=O)c1ccccc1 (centres undefined),i,-22%
Cc1cc(C)cc(Cn2cc(CN3CC(N4CCN(C)CC4)CS3(=O)=O)nn2)c1 (centres undefined),28%,-2%
COc1ccc(CCN2C(=O)CN(Cc3ccccc3)CC2=O)cc1OC,i,-2%

# 3 structures from above, sorted by length of the SMILES, highest first:
SMILES,Vaccinia mCherry,VACV Venus inh
Cc1cc(C)cc(Cn2cc(CN3CC(N4CCN(C)CC4)CS3(=O)=O)nn2)c1 (centres undefined),28%,-2%
CC(C)C[C@@H](CSc1ccc(Br)cc1)N1CCN(C)CCC1=O,i,-12%
COC(=O)CSC1=C(C#N)C(c2ccccc2F)CC(=O)N1 (centres undefined),i,-6%

# Later entries:
SMILES,Vaccinia mCherry,VACV Venus inh
CC(C)(C)c1ccc(OCC(=O)NCCN2CCOCC2)cc1,-14%,-4%
CC(=O)Nc1cccc(Nc2ccc(C#N)cc2)c1,i,-4%
O=C(O)CCc1ccc(-c2ccccc2)n1-c1cccc(Br)c1,-3%,-8%
COc1ccc(-n2nc3c(c2NC(=O)c2cc4ccccc4o2)CS(=O)(=O)C3)cc1,-7%,-5%
Cc1oc(-c2cccs2)cc1C(=O)N1CCCC(C)(C(=O)O)C1 (centres undefined),-8%,0%
Cc1ccc(-n2c(O)c(C=NCCN3CCOCC3)c(=O)[nH]c2=O)cc1,nt,-2%
Cc1ccc(-n2c(=O)c3c(C)c(C)sc3n(Cc3ccc(F)cc3Cl)c2=O)cc1C,-4%,1%
Cc1ccc(C(=O)c2cn(Cc3cccc(F)c3)c3nc(C)ccc3c2=O)cc1,-11%,-10%
Cc1cc(NC(=O)CSc2nc(N)c(NC(=O)c3ccccc3)c(=O)[nH]2)no1,i,-4%
O=C(c1ccc2c(=O)n3c(nc2c1)CCCCC3)N1CCN(c2ccccc2)CC1,-5%,-7%
CCC(C)(C)NC(=O)Cc1ccc(F)cc1,i,0%
COC(=O)CN1C(=O)COc2ccc(S(=O)(=O)N3CCOCC3)cc21,-14%,-5%
O=C(CSc1nc(-c2ccccc2)c(-c2ccccc2)o1)Nc1nnc(-c2ccccc2)s1,i,-5%
COc1ccccc1-c1noc(CCCC(=O)Nc2cc(C)ccc2C)n1,-9%,-6%
CC(NC(=O)CCc1cn(Cc2ccccc2Cl)c2ccccc12)c1ccccc1 (centres undefined),?,-27%
Cn1c(N2CCN(S(=O)(=O)c3ccc(F)cc3)CC2)nc2ccccc21,-5%,-3%
COc1cccc(CN2CCCCC2c2cccnc2)c1 (centres undefined),-14%,-14%
Cn1cccc1-c1cc(C(=O)N/N=C/c2cccc(O)c2)[nH]n1,8%,3%
COc1ccccc1CCC(=O)Nc1cc(S(=O)(=O)N2CCCCC2)ccc1N1CCN(C)CC1,-1%,-13%
Cc1cccc(-c2noc(CN(C(=O)c3ccc(C)c(C)c3)C(C)C)n2)c1,-1%,8%
O=c1[nH][nH]c(C(F)(F)F)c1C=NCc1cccc(Cl)c1,-12%,-6%
CN(Cc1ccccc1)C(=O)CN1C(=O)c2ccc([N+](=O)[O-])cc2C1=O,-15%,10%
CC(NC(=O)C(Cc1ccccc1)=NO)c1ccccc1 (centres undefined),i,-12%
Cc1c(C)c(C)c(S(=O)(=O)Nc2ccc3[nH]c(=O)[nH]c3c2)c(C)c1C,-14%,-10%
COc1ccc(COC(=O)c2[nH]c3c(c2C)C(=O)CC(c2ccc(OC)c(OC)c2)C3)cc1 (centres undefined),-7%[7.34 µM],-16%[7.34 µM]
N#CC1(NC(=O)COC(=O)Cc2c[nH]c3ccccc23)CCCCC1,i,-4%
CCSc1ncc(Cl)c(C(=O)Nc2ccc(S(=O)(=O)N(C)c3ccccc3)cc2)n1,-18%,-10%
FC(F)(F)c1cc(-c2ccccc2)nc(N2CCCCCC2)n1,nt,9%
Cc1cccc(NC(=O)Cn2c(=O)n(CCCCCC(=O)NCc3ccc4c(c3)OCO4)c(=O)c3sccc32)c1,-8%,-2%
CCCc1cc2c(cc1NC(=O)c1ccccc1Cl)OCO2,nt,-14%
Cc1ccc(Cc2nc3ccccc3n2C(CCc2ccccc2)c2nc3ccccc3[nH]2)cc1 (centres undefined),i,-14%
CCCNC(=O)CN(C1CCCCC1)S(C)(=O)=O,-7%,-2%
COc1ccc(NC(=O)c2cc(S(=O)(=O)N3CCOCC3)cn2C)cc1Cl,25%&-6%,-5%&-9%
Cc1nc(N)sc1-c1csc(Nc2cc(N(C)C)ccc2Cl)n1,-20%,-16%
O=[N+]([O-])c1ccccc1/C=C1\C=Cc2ccccc21,-13%,-9%
CNc1nnc(CSc2nc3ccccc3s2)s1,-14%[1.46 µM],-21%
Cc1ccc(OCC(O)Cn2c(N)nc3c2c(=O)n(C)c(=O)n3C)cc1 (centres undefined),i,-17%
COc1ccc(-n2c(=O)c3c4c(sc3n3c(SCCC(C)C)nnc23)COC(C(C)C)C4)cc1 (centres undefined),-15%,-6%
COc1ccc(CCNC(=O)c2cc3cc(Cl)ccc3nc2N)cc1OC,i,-13%
CN(C)CCNC(=O)c1onc(CSc2ccncc2)c1C(=O)NCCN(C)C,-6%,-8%
COc1ccc(COC[C@H](C)[C@H](O)[C@@H](C)[C@H]2OC(=O)[C@@H]2C)cc1,i,-13%
CCCCOC(=O)N1CCOCCOCCOCCOCC1,i,-12%
O=C(c1ccco1)N1CCN(C(=O)c2ccc(CS(=O)c3ccc(Cl)cc3)o2)CC1 (centres undefined),-23%[7.34 µM],-11%[7.34 µM]
O=C(Nc1cccc(C(F)(F)F)c1)c1cccnc1,-4%,-15%
CCN(CC)C(=O)c1cc2sc3ccccc3c2s1,nt,-28%
CSc1oc(-c2ccc(F)cc2)nc1S(=O)(=O)c1ccc(Br)cc1,-16%,-13%
COC(=O)C1CCN(Cc2ccc3c(c2)CN(C(=O)c2sc(C)nc2C)CCO3)CC1,-14%,-7%
O=C(N/N=C/c1ccc(N2CCCC2)c([N+](=O)[O-])c1)c1cccnc1,-18%,-6%

# Compounds listed so far with a COOH group (2):
SMILES,Vaccinia mCherry,VACV Venus inh
O=C(O)CCc1ccc(-c2ccccc2)n1-c1cccc(Br)c1,-3%,-8%
Cc1oc(-c2cccs2)cc1C(=O)N1CCCC(C)(C(=O)O)C1 (centres undefined),-8%,0%

# Carrying on:
SMILES,Vaccinia mCherry,VACV Venus inh
CCN(CC)S(=O)(=O)c1ccc(C(=O)Nc2nnc(-c3ccco3)o2)cc1,-25%,?
O=C(Cn1nnc(-c2cccs2)n1)NCc1ccccc1,i,0%
Cc1cccc(C)c1NC(=O)C1(C)CN(S(C)(=O)=O)CC(=O)N1CCc1ccc(O)cc1 (centres undefined),-14%,13%
O=C(c1nc(-c2ccc(Cl)cc2)n2c1CCCCC2)N1CCN(c2ccccc2F)CC1,-13%,-14%
COc1ccc(NC(=O)C/C(C)=N/NC(=O)c2ccccn2)c(OC)c1,?,-18%
COc1ccc(CC(=O)OCC(=O)NC2CCCCCC2)cc1OC,-3%,-2%
CC(NC(=O)c1ccc2c(c1)OCCO2)c1ccc(S(N)(=O)=O)cc1 (centres undefined),-3%,-22%
CCOC(=O)C1CCN(C(=O)c2cc3ccc4ccc(C)[nH]c4c3n2)CC1,-9%,-4%
CC(C)c1ccc(NC(=O)C2Cc3c(-c4ccc(Cl)cc4)ccnc3O2)cc1 (centres undefined),-3%,-9%
Cc1cccc(Cc2cnc(NC(=O)c3ccc(C)o3)s2)c1,-15%,?
CC(C)NC(=O)Nc1ccc2c(c1)C(=O)N([C@H](C)CO)C[C@H](C)[C@@H](CN(C)Cc1ccc(C(F)(F)F)cc1)OCCCC[C@@H](C)O2,-27%,?
COC(=O)c1scc(C)c1NC(=O)Cc1ccccc1,i,-12%

# The list goes on; it opens with the two that closed the last part.
SMILES,Vaccinia mCherry,VACV Venus inh
CC(C)NC(=O)Nc1ccc2c(c1)C(=O)N([C@H](C)CO)C[C@H](C)[C@@H](CN(C)Cc1ccc(C(F)(F)F)cc1)OCCCC[C@@H](C)O2,-27%,?
COC(=O)c1scc(C)c1NC(=O)Cc1ccccc1,i,-12%
O=C(CN1C(=O)NC2(CCCC2)C1=O)Nc1cc(Cl)ccc1N1CCCC1,i,-16%
O=C1c2ccccc2C(=O)N1CCc1c[nH]c2ccc(O)cc12,?,-19%
CCOC(=O)C1CCCN(CC(O)COCc2ccc3c(c2)OCO3)C1 (centres undefined),-20%,-9%
COc1ccc(C2Nc3ccccc3C(=O)N2Cc2ccco2)cc1COc1ccc(F)cc1 (centres undefined),-29%,-15%
CC(C)[C@@]1(NC(=O)[C@@H]2C[C@@H]3c4cccc5[nH]cc(c45)C[C@H]3N(C)C2)O[C@@]2(O)[C@@H]3CCCN3C(=O)[C@H](Cc3ccccc3)N2C1=O,-15%&-6%,-27%&-24%
C[C@H](NC(=O)C(c1ccccc1)c1ccccc1)c1ccccc1,-25%,-12%
O=C(Nc1ccc(S(=O)(=O)Nc2nccs2)cc1)c1cccc(F)c1,-2%,-3%
COc1ccc(-c2noc(CSc3nc4sc(C)c(C)c4c(=O)n3-c3ccccc3)n2)cc1OC,i,-9%
C[C@@H]1CN([C@H](C)CO)C(=O)c2cc(C#CC(C)(C)O)cnc2O[C@@H]1CN(C)C(=O)C1CC1,-7%,0%
O=C1/C(=C/c2ccccc2)C[C@@]2(O)[C@H]3Cc4ccc(O)c5c4[C@@]2(CCN3CC2CC2)C1O5 (some centres undefined),?,10µM*
COc1cc2c(cc1OC)CN(C(=O)Cn1ccccc1=O)CC2,-14%,-5%
CCOc1ccc(CC(=O)NCC2(N3CCCCC3)CCCCC2)cc1,-7%,-6%

# Compound profiles (already shown). Order of screens: Vaccinia mCherry	VACV Venus inh
# CCOc1ccc(CC(=O)NCC2(N3CCCCC3)CCCCC2)cc1 across the screens: -7%	-6%
# COc1cc2c(cc1OC)CN(C(=O)Cn1ccccc1=O)CC2 across the screens: -14%	-5%
# COc1ccc(C2Nc3ccccc3C(=O)N2Cc2ccco2)cc1COc1ccc(F)cc1 (centres undefined) across the screens: -29%	-15%

# Next part
SMILES,Vaccinia mCherry,VACV Venus inh
CN(CCOC(=O)c1ccccc1)Cc1ccccc1,i,-10%
CCN(Cc1ccccc1)c1ccc(/C=N/NC(=O)c2cccc(S(=O)(=O)N3CCOCC3)c2)cc1,?,-22%
O=C(CSc1n[nH]c(-c2ccccc2)n1)Nc1ncc(Br)cc1Br,nt,-22%
CC1(C(=O)NS(=O)(=O)c2ccccc2Cl)CCN1C(=O)CC(c1ccccc1)c1ccccc1 (centres undefined),i,-16%
O=C(NC1=NCCS1)[C@H](Cc1ccccc1)N1C(=O)c2ccccc2C1=O,-13%,-15%
CC(C)OC(=O)NCCOC(=O)Nc1cccc(Cl)c1,-27%,-17%
Cc1noc(C)c1C(=O)N1CCC1(C)C(=O)NS(=O)(=O)c1ccc(C#N)cc1 (centres undefined),34%[activator],5%
O=S(=O)([N-]c1nc2ccccc2nc1-[n+]1ccc(CCCc2ccccc2)cc1)c1cccs1,-15%[7.34 µM],-4%[7.34 µM]
CCOc1cc(NCCN2CCOCC2)c([N+](=O)[O-])cc1OCC,2%,3%
O=C1CN(C(=O)COC(=O)/C=C/c2ccc(S(=O)(=O)N3CCOCC3)cc2)c2ccccc2N1,i,-12%
CCOc1cc2c(cc1OCC)-n1cccc1C(c1ccccc1F)NC2 (centres undefined),-17%,-5%
CCOC(=O)N1CCN(C(=O)COC(=O)CNC(=O)c2ccc(Cl)cc2Cl)CC1,-19%,-7%
CCn1ccnc1CN(C)C(=O)C1CCC(=O)N(CCc2cccc(F)c2)C1 (centres undefined),i,-4%
Cc1ccc2cc(CN(Cc3ccco3)C(=O)c3ccco3)c3nnnn3c2c1,-16%,-12%
Cc1ccc(C)c(S(=O)(=O)Nc2ccc(C(=O)NCCCN(C)C)cc2)c1,i,-9%
O=C(O)CC1=C(O)C(=O)N(c2ccccc2)C1c1ccc(Br)cc1 (centres undefined),nt,-8%
CCCCC/C=C\C/C=C\C/C=C\C/C=C\CCCC(=O)O,-17%[3.33 µM],-10%[3.33 µM]
O=C(NC(=S)Nc1cccc(Cl)c1N1CCOCC1)c1cccs1,0%,-15%
CC1(C(=O)NS(=O)(=O)c2cccc(F)c2)CCN1C(=O)c1cccc2ccccc12 (centres undefined),i,-12%
OC(c1cccc(Cl)c1)c1nc(-c2ccc3c(c2)OCO3)cs1 (centres undefined),25%,-12%
Cc1cc(=O)oc2cc(OCc3nnc(-c4ccccc4Br)o3)ccc12,-12%,-8%
COn1c(=O)c(-c2ccccc2)[n+]([O-])c2ccccc21,i,-8%
Cn1ccnc1Sc1cc(Cl)ccc1[N+](=O)[O-],-15%,-10%
c1ccc(CNC2=NCCCC2)cc1,nt,-8%
